A1 inh: inhibitors of the anti-apoptotic protein A1, read as caspase activation; MEF A1-2A-BIM cells, Caspase-Glo 3/7 luminescence, 3 h; percent of clofoctol response, vehicle zero; caspase activation, % (test concentration not listed); 330,000 compounds, 0.066% hits;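 active = over half of replicate activation scores above 10%, or exactly half above 10 with the replicate mean above 10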;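 also: wells of about 30 µL received 50 nL stock; many hits fall short of the cut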
rRNA inh HTS: inhibitors of bacterial rRNA selective over humanized ribosomes | E. coli WT GFP vs humanized-ribosome RFP mutants, fluorescence, 24 h; stronger effect = lower value; DMSO median 0, no signal -100 | 350,000 compounds, 1.6% hits | GFP signal change (wild-type ribosome), % (test concentration not listed);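 active = significant combined selectivity score with lowered wild-type GFP, culture density cut under 30%, mutant RFP and density less affected; inactive = any of these conditions unmet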; also: one replicate is shown; some compounds called inactive have numbers as strong as hits
Calb FLC: affects C. albicans growth with fluconazole. 300,000 compounds, 0.57% hits. growth inhibition, % (concentration not given with the values). C. albicans CaCi-2 (fluconazole-resistant clinical isolate) + fluconazole, Alamar Blue growth, 48 h;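 active = most replicates above 75%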;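 also: all wells also contain fluconazole at 8 µg/ml as a sub-toxic cotreatment; 0% = median of DMSO wells and 100% = median of geldanamycin control wells; wells of about 8 µL received 7.5 nL stock; the first replicate is given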
T cruzi inh: T. cruzi replication inhibition; T. cruzi beta-gal in NIH3T3, luminescence, 90 h; inhibition, % (test concentration not listed); 300,000 compounds, 1.4% hits; AID 1885;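 active = mean inhibition across valid replicates above about 55%, limit read from the data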;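 also: signal also drops with host cell toxicity which is not excluded here; 0% = plate median of DMSO wells and 100% = zero luminescence signal; higher percent means less beta-gal luminescence so fewer parasites; stock transfer was 50 nL into about 50 µL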
Beta2AR agonist: agonists of human beta-2 adrenergic receptor inducing internalization; P07550; Am2.2-beta2AR cells, FAP receptor internalization, flow cytometry; reference of the scale not given here; response, % (test concentration not listed); 340,000 compounds, 0.43% hits; AID 504454;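 active = response above a set limit, near 3 SD of response in nonfluorescent compounds, cut at about 42% in these data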;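 also: stock transfer was 100 nL into about 11 µL; a reference agonist was the positive control; negative values mostly stem from fluorescent compounds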
Target sequence (P07550 whole entry, looked up): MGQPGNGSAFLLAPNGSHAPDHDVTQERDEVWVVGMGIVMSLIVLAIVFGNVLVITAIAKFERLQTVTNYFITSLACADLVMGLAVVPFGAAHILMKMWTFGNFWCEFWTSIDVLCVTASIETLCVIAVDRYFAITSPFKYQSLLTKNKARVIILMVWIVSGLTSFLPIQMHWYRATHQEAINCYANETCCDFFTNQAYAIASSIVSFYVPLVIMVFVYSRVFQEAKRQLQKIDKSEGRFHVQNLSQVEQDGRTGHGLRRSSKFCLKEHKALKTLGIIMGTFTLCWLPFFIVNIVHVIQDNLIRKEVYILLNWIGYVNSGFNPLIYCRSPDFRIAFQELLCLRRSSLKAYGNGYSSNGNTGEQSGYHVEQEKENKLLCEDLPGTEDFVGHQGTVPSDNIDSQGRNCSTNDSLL
ALR H2O2 inh: human ALR oxidase inhibition via reduced H2O2; P55789; purified ALR, DTT oxidation, H2O2 HRP-luminol luminescence; inhibition, % (test concentration not listed); 290,000 compounds, 3.8% hits;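 active = mean and each replicate at 75% or more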;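 also: stock transfer was 7.5 nL into about 7.5 µL; 0% = neutral wells and 100% = wells with inactivated enzyme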
Target sequence (P55789 whole entry, looked up): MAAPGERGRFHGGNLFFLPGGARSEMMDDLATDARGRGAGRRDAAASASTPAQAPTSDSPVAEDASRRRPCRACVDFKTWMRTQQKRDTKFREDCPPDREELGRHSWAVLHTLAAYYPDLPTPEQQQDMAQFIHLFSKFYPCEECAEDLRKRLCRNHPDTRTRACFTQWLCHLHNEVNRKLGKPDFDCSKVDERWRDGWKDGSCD
Beta apoptosis: blocks beta cell apoptosis. INS-1E cytokine-induced death, ATP luminescence, 48 h; percent of positive-control rescue, neutral wells zero. protection from apoptosis, % (test concentration not listed). 300,000 compounds, 0.8% hits;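 active = all replicates at 75% or more, or half of them and the mean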;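 also: 0% = cytokine-treated negative control wells and 100% = positive control rescue; higher means more ATP so stronger rescue from cytokine killing; wells of about 40 µL received 100 nL stock; the first replicate is given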
LANA-H2B inh: blocks KSHV LANA binding to histone H2A/H2B; Q9QR71; cell-free LANA-H2A/H2B peptide, fluorescence polarization; inhibition, % (concentration not given with the values); 320,000 compounds, 0.6% hits; AID 2629; in the data active = inhibition mostly above about 10%, no sharp cut-off; inactive = mostly below about 6.7%;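 also: stock transfer was 7.5 nL into about 10 µL; 0% = median of vehicle wells and 100% = median of positive control wells; one replicate is shown; the record names a cut of 25% in any replicate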
rRNA inh HTS OD600: also measured in rRNA inh HTS; calls as there; OD600 change, %; measured here: OD600 growth;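 optical density of the mix in the first replicate; 0 = DMSO median and -100 = no signal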
rRNA inh HTS RFP: recorded beside rRNA inh HTS, whose call it bears; RFP signal change, %; measured here: RFP humanized mutant strains;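 first replicate; 0 = DMSO median and -100 = no signal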
* = called active by the depositor; . = no result given. This is a subset; rates above refer to the full screens.

entry	Structure	A1 inh	rRNA inh HTS	rRNA inh HTS OD600	rRNA inh HTS RFP	Calb FLC	T cruzi inh	Beta2AR agonist	ALR H2O2 inh	Beta apoptosis	LANA-H2B inh
1	COCCn1c(Cc2cccn2C)nnc1SCC(=O)Nc1nccs1	0.3	8	7	0.2	-21	-19	-8	71	-7	5.8
2	Cc1onc(-c2c(F)cccc2Cl)c1C(=O)OCC(=O)NC(=O)NCC(C)C	0.3	-50	-76	-24	11	8	-5	3	1	3.4
3	CN1C(=O)C(=C2CCCCCC2)SC1=S	0.4	.	.	.	0	15	-13	-13	-8	-0.8
4	COc1cccc(/C=C/C(=O)OCC(=O)c2ccccc2)c1OC	-5.2	-9	-17	0.0	.	.	5	3	0	-1.8
5	COc1ccc(C2CC(c3cccs3)=NN2C(=O)CSc2nncn2C)cc1OC (configuration not stated)	0.3	2	-4	4.7	0	0	-11	.	-2	-0.2
6	CC1(C)Oc2ccc3ccc(=O)oc3c2CC1O (configuration not stated)	0.5	9	13	2.2	8	-8	-7	68	.	-4.4
7	Cc1[nH]c(=O)[nH]c(=O)c1/C=N/NC(=O)[C@H](CC(C)C)NC(=O)OC(C)(C)C	-1.3	.	.	.	-18	0	0	-14	-5	1.7
8	O=C(OCC(=O)N1CCCCCC1)c1cccs1	-0.6	.	.	.	-5	-3	-3	0	-3	-0.6
9	O=C(COC(=O)CCC(=O)Nc1nccs1)NCc1ccco1	-0.8	.	.	.	4	-8	22	0	-3	4.6
10	COc1ccc(F)c(C2C(C#N)=C(N)Oc3n[nH]c(C(C)(C)C)c32)c1 (configuration not stated)	0.0	.	.	.	22	-5	1	-3	14	-3.6

Limited to T cruzi inh, Beta2AR agonist and LANA-H2B inh, for 3 of the compounds above:
| # | SMILES | T cruzi inh | Beta2AR agonist | LANA-H2B inh |
| --- | --- | --- | --- | --- |
| 1 | COCCn1c(Cc2cccn2C)nnc1SCC(=O)Nc1nccs1 | -19 | -8 | 5.8 |
| 2 | Cc1onc(-c2c(F)cccc2Cl)c1C(=O)OCC(=O)NC(=O)NCC(C)C | 8 | -5 | 3.4 |
| 3 | CN1C(=O)C(=C2CCCCCC2)SC1=S | 15 | -13 | -0.8 |

Continuation.
entry	Structure	A1 inh	rRNA inh HTS	rRNA inh HTS OD600	rRNA inh HTS RFP	Calb FLC	T cruzi inh	Beta2AR agonist	ALR H2O2 inh	Beta apoptosis	LANA-H2B inh
11	COc1ccc(-n2c(=O)c3ccccc3n(CC(=O)Nc3ccccc3OC)c2=O)cc1	0.4	5	0	-2.4	5	-13	1	-1	-2	-1.7
12	CCSc1nc2sc3c(c2c(=O)n1-c1ccccc1)CCN(C(C)C)C3	-0.8	-13	-5	7.1	1	20	14	-2	2	2.0
13	COC(=O)N/N=C1\CCCc2c(C)cc(C)cc21	0.2	4	8	-9.5	8	-9	-11	-6	4	3.2
14	CCN(CC)S(=O)(=O)c1cc(C(=O)O)c(Cl)cc1Cl	0.3	.	.	.	-5	2	-1	-6	-1	-7.3
15	O=C(/C=C/c1cccc(F)c1)N1CCc2ccccc21	-8.7	.	.	.	16	17	4	-13	8	-5.0
16	Fc1ccc(-c2cc(C(F)(F)F)nc(-n3cncn3)n2)cc1	1.1	.	.	.	33	-1	1	-1	-3	-1.1
17	COc1ccc(NC(=O)C2CCN(S(=O)(=O)c3c(C)noc3/C=C/N(C)C)CC2)cc1	0.4	2	-4	0.7	10	4	1	-8	1	1.2
18	O=C(CSc1ncnc2ccccc12)Nc1cccc(S(=O)(=O)N2CCCC2)c1	-1.0	5	18	4.6	-17	-12	-11	99*	-5	4.4
19	CC(Oc1ccc(Cl)cc1Cl)c1nc(-c2ccc(NC(=O)c3ccco3)cc2)no1 (configuration not stated)	-0.3	-3	4	-3.2	-8	-12	66*	17	11	5.1
20	O=C(Nc1ccccn1)c1ccc2nc(-c3ccccc3)c(-c3ccccc3)nc2c1	0.5	.	.	.	2	20	.	-4	9	-3.2
21	CCOc1ccc(NC(=O)CN(C)S(=O)(=O)c2ccc3c(c2)CCC(=O)N3)cc1	0.9	0	2	-3.3	20	-1	-4	-13	-2	4.6
22	CCCn1c(C(O)c2ccc3c(c2)OCO3)nc2ccccc21 (configuration not stated)	-0.3	-7	-12	-6.8	-21	2	-6	-2	-1	-1.7
23	COc1cc(OC)cc(-c2cc(N)n(S(=O)(=O)Cc3ccccc3)n2)c1	0.6	-6	-12	-2.3	1	9	-5	-11	1	4.4
24	Cc1ccc(C)c(C(=O)C(C)OC(=O)c2cccn2C)c1 (configuration not stated)	0.9	.	.	.	-4	8	6	.	.	-3.8
25	O=C(COC(=O)CCc1c[nH]c(=O)[nH]1)Nc1ccccc1	-0.6	.	.	.	-3	-10	-10	36	1	0.3
26	C#CCOCCOCCOCCNc1nc(N2CCOCC2)nc(N2CCN(C(=O)Cn3cc(CCCN=C(N)N)nn3)CC2)n1	0.2	5	8	-3.1	9	-2	4	-11	0	2.0
27	COc1ccc(N/C=C2/CCCCC2=O)cc1	0.1	.	.	.	-36	-7	7	0	-2	-2.0
28	CCC(CC)C(=O)NCCc1cc2ccc(OC)cc2[nH]c1=O	-0.6	.	.	.	5	-11	3	-20	0	3.5
29	CCN(CC(=O)Nc1ccccc1C(F)(F)F)C(=O)c1oc2c(Cl)cccc2c1C	0.7	4	11	-0.5	-4	15	-3	.	-6	0.4
30	COc1ccccc1C1CCN(Cc2cccc3ccccc23)CC1	-1.2	-19	-51	1.9	0	26	3	-67	-3	-0.5
31	CC(=O)N1CCOc2ccc(S(=O)(=O)N3CCC(C)CC3)cc21	-0.6	3	8	-0.4	-5	-9	-5	-3	-3	-4.2
32	O=C(Nc1ccc(S(=O)(=O)N2CCc3ccccc32)cc1)c1ccco1	-0.1	.	.	.	7	13	-3	-7	8	4.0
33	O=C1N(Cc2cccc(Cl)c2)C[C@@H]2C[C@@H](c3cccn3-c3nccs3)N3CCC[C@@]123	-0.1	2	-9	11	3	-22	8	1	-8	-4.7
34	O=C(Nc1ccccc1Cl)c1cc2ccccc2o/c1=N\O	-2.4	9	7	-4.3	12	-40	14	1	9	1.0
35	O=[N+]([O-])c1ccc(O)c2cccnc12	0.7	-2	-15	0.3	22	2	-5	-31	-1	-3.7
36	Cc1ccc(Cn2c([N+](=O)[O-])cnc2C)cc1	-0.7	.	.	.	-5	-5	-2	.	-6	.
37	O=C(COc1coc(CN2CCc3ccccc3C2)cc1=O)Nc1ccc(Cl)cc1	-1.1	6	9	-0.1	6	3	-4	-1	.	2.1
38	Cc1c(Br)c([N+](=O)[O-])nn1C(C)C(=O)NCC1CCCO1 (configuration not stated)	-0.1	11	9	-12	7	-2	-3	.	-18	-1.0
39	CN(CC(=O)N1CCc2ccccc21)S(=O)(=O)c1cccc2cccnc12	0.1	-4	-4	-1.1	-1	-4	13	28	.	0.1
40	CC(C)Cc1csc(NC(=O)c2ccc(Cl)cc2)c1C(=O)O	-7.9	.	.	.	10	-9	0	12	-4	-2.5
41	O=C(Nc1nc2cc3c(cc2s1)OCCO3)C1=COCCO1	-8.0	-7	-4	-3.6	-4	-5	22	-4	20	-5.1
42	COc1ccc2oc(C(=O)N3CCCc4ccccc43)c(C)c2c1	-4.0	-39	-62	0.4	6	17	3	-6	0	-3.7
43	Cc1c(NS(=O)(=O)c2cc(C(=O)O)ccc2Cl)c(=O)n(-c2ccccc2)n1C	0.5	-2	-5	-2.1	16	-9	-12	2	2	-6.3
44	CCOc1ccccc1NC(=O)COC(=O)C(CC(C)C)N1C(=O)C2CC=CCC2C1=O (configuration not stated)	-0.2	.	.	.	-6	-13	6	-16	-5	4.3
45	O=C(CSC1=NC(=O)C(c2ccccc2)C(=O)N1)Nc1ccccc1Cl (configuration not stated)	0.7	.	.	.	-7	-2	-3	99*	-17	2.5
46	CCCCC[C@@H]1C=C(C(=O)O)[C@H](c2ccc(CC)cc2)N1S(=O)(=O)c1ccc(C)cc1	0.5	3	-16	-3.7	.	.	-1	.	-9	-0.6
47	CCN(CC(=O)Nc1ccc(NC(C)=O)cc1)C(=O)c1cccnc1Sc1ccc(C)c(C)c1	0.8	0	0	3.0	7	1	-7	4	2	7.3
48	CCOC(=O)C1CCCN(C(=O)c2cn(C)c3ccc(S(=O)(=O)N(C)C)cc3c2=O)C1 (configuration not stated)	-0.1	12	17	0.7	.	.	-1	-8	-5	-3.3
49	CCn1c(CS(=O)Cc2ccc(Cl)cc2Cl)nnc1SCc1c(Cl)cccc1Cl (configuration not stated)	0.2	.	.	.	3	27	-3	99*	4	-1.3
50	Cc1nn(-c2ccccn2)c2c1C(=O)CC(C)(C)C2Br (configuration not stated)	0.8	-17	-1	1.1	-1	4	-4	-3	-10	-0.7
51	O=C(OCc1ccccc1)C1=NNC2C(=O)N(Cc3ccccc3)C(=O)C12 (configuration not stated)	-0.1	15	6	2.8	-6	-4	2	3	-10	3.1
52	O=C(O)COc1ccc(/C=N/NC(=O)/C(=C/C=C/c2ccccc2)NC(=O)c2ccccc2)cc1	-0.9	-19	-7	-2.6	8	-7	5	.	-2	0.7
53	CC(C)(C)NC(=O)Cn1nnc(-c2ccc(Cl)cc2)n1	-0.1	-7	10	-3.4	-23	-7	-5	-2	.	-4.5
54	O=C(CS(=O)(=O)Cc1ccccc1)NCC1CCCO1 (configuration not stated)	0.0	.	.	.	3	-6	-6	-19	-1	0.6
55	CNC(=O)NC(=O)C(C)OC(=O)c1c2c(nc3ccccc13)/C(=C/c1cccs1)CC2 (configuration not stated)	-1.1	24	23	10	5	2	5	.	-4	.
56	COC(CNC(=O)C(=O)Nc1cc2c3c(c1)CCN3C(=O)CC2)OC	1.1	0	-11	-4.3	-3	-3	-8	-5	1	15

Screening results deposited in PubChem BioAssay by several laboratories.
